# Source: PubChem (several laboratories)
# Arbovirus anti = arbovirus infection inhibition. inhibition, % at 10 µM. arbovirus infection cell-based antiviral screen. 200,000 compounds, 0.37% hits;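 active = inhibition from about 30%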;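 note: bluetongue infection of BSR cells; cell survival read as ATP light after 72 h; 0% = infected wells without compound and 100% = uninfected wells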
# Mtb H37Rv = M. tuberculosis H37Rv growth inhibitors, H37Rv strain (AID 1626) | M. tuberculosis H37Rv growth inhibition; higher % means a stronger effect | inhibition, % at 10 µM; hits with a dose series show IC50 in µM | 220,000 compounds, 0.95% hits;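 active = confirmed in a dose series; inconclusive = inhibition above 80% but not taken into the dose series; inactive = below 80% or under 30% at every dose of the series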;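 note: bacteria incubated seven days before Alamar blue readout; 0% = bacteria only wells and 100% = bacteria with antibiotic wells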
# YopH inh = YopH (Yersinia) phosphatase inhibition; fluorescence Ex485/Em525; inhibition, %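 (about 10 µM by stock and volumes)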; 140,000 compounds, 0.16% hits; AID 898;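 active = inhibition of 50% or more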;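 note: controls were vehicle for no effect and minimum signal wells for full effect; inactives centre near -20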
# RecA splice inh = inhibitors of M. tuberculosis RecA intein splicing. P9WHJ3. cell-free RecA intein splicing, fluorescence. inhibition, %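 (about 9 µM by stock and volumes)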. 290,000 compounds, 0.75% hits. AID 2221; in the data active = inhibition above about 30%; inconclusive = no clear call, values can overlap the other calls;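 note: 0% = vehicle wells and 100% = reference inhibitor control wells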
# Target sequence (P9WHJ3 whole entry, looked up, canonical isoform): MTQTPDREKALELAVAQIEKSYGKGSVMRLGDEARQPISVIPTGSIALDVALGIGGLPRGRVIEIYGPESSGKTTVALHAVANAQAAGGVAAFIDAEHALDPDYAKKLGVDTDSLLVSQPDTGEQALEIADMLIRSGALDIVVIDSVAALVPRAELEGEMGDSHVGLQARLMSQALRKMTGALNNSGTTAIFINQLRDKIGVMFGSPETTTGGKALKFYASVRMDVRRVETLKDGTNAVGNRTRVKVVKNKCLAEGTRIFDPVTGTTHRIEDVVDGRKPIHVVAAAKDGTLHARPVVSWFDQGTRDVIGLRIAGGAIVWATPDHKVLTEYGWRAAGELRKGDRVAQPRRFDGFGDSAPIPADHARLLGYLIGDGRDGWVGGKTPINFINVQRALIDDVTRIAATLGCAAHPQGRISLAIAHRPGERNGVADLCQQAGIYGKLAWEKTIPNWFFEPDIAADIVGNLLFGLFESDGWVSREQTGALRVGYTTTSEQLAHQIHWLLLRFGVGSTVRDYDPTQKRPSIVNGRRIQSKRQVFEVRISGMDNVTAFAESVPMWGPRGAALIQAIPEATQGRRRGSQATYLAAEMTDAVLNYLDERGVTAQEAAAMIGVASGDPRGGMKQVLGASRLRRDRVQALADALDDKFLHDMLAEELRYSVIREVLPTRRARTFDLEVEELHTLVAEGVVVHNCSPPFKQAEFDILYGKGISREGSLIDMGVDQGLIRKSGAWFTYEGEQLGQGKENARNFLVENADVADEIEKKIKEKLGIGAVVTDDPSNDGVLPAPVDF
# Mtb bLac sens = beta-lactam sensitization of Mtb H37Rv | AID 434955 | 330,000 compounds, 0.27% hits | inhibition, % at 25 µM | M. tuberculosis H37Rv growth with meropenem, percent inhibition; hits of this screen are not shown here;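 active = about 74% or more and at least 40 points above the plate without the antibiotic, then above 30% in a dose series; inconclusive = first-round hits that could not be retested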;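 note: growth measured after seven days incubation then overnight dye step; 0% = bacteria only wells and 100% = bacteria with antibiotic; twin plates without the antibiotic show which effects depend on it; some results filed as inactive read as strong as hits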
# Arbovirus anti repeat = also measured in Arbovirus anti; calls as there; inhibition, %; measured here: 10K subset replicate screen; many hits read low in the repeat;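 first of two repeat runs on a subset; 0% = infected and 100% = uninfected wells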
# * hit, by the source's call; ? = inconclusive; . = no result given. These rows are one share of the data. The share of hits here may be higher or lower than overall.
SMILES,Arbovirus anti,Mtb H37Rv,YopH inh,RecA splice inh,Mtb bLac sens,others
NS(=O)(=O)c1ccc(NC2(C(=O)O)CCCC2)cc1,.,3%,.,-1.5,3,
N#C/C(=C\c1ccc[nH]1)C(=O)Nc1ccccc1F,.,.,.,-0.6,1,
CCOc1cc(NC(=O)c2ccccn2)c(OCC)cc1NC(=O)c1ccccc1,-4,0%,.,-3.8,-6,
O=C(NCC(=O)N(CC1CCCO1)C(C(=O)NC1CCCC1)c1cccnc1)c1ccco1 (stereo not given),3,3%,-29,-6.7,-12,
Cc1ccc2c(CN3CCOCC3)cc(=O)oc2c1,.,-9%,.,1.7,23,
CCCCC1=CC2=CC(=O)C(C)(OC(=O)CC)C(=O)C2=CN1CC(C)C (stereo not given),.,-1%,.,-11,-6,
CN(C)C(CNC(=O)C1CCN(S(=O)(=O)c2cccc(Cl)c2Cl)CC1)c1ccccc1 (stereo not given),.,.,.,4.3,-2,
Cc1sc2nc(C3CC3)nc(NCCNS(=O)(=O)c3ccccc3)c2c1C,-8,5%,-12,3.9,6,
O=C(c1cccc2ccccc12)N1CCN=C1SCc1ccc([N+](=O)[O-])cc1,8,8%,-30,18,-5,
CCCN(CCC)C(=S)NC1CC2C=CC1C2 (stereo not given),.,2%,.,2.6,-7,
Cc1ccc(OCC(O)Cn2nc(C)cc2C)cc1 (stereo not given),-2,14%,.,1.2,-1,
CC(C)Cn1c2c(c(O)c(C(=O)Nc3ccc(F)cc3)c1=O)CCCC2,-14,29%,-3,3.2,.,
CCC1=[N+](CC(=O)c2ccc(C)cc2)CCn2c(C)ccc21,-21,4%,-33,0.6,5,
COC(=O)CSc1nnc(CNC(=O)c2ccc(OC)cc2OC)n1C,4,-10%,-48,-3.3,-3,
Cc1ccc(CNc2ncnc3c2cnn3-c2ccccc2)cc1,-17,-4%,-7,-0.8,?,
O=C(NCCC(=O)N(CCc1ccccc1)Cc1ccccc1)c1ccc(Br)cc1,.,.,.,12,-3,
CCN(C(=O)CCN1C(=O)/C(=C/c2ccccc2)SC1=S)C1CCS(=O)(=O)C1 (stereo not given),.,.,.,13,-4,
O=C(c1cc(-c2ccccc2)nn1-c1ccccc1)N1CCN(S(=O)(=O)c2c(F)cccc2F)CC1,.,.,.,-3.3,1,
COCc1cc(=O)[nH]c(N2CCN(C(=O)c3ccco3)CC2)n1,.,.,.,0.9,-3,
Cc1nn(Cc2ccccc2Cl)c2sc(C(=O)Nc3nccs3)cc12,-9,13%,-12,2.3,5,
C=CCN(C(=O)c1csnn1)C(C(=O)NCc1ccccc1)c1ccccc1F (stereo not given),.,.,.,0.6,-3,
CCOc1ccc(/C=N/NC(=O)C2CC2)cc1OC,.,.,.,0.5,-3,
C=CCn1c(SCCOC)nc2c1c(=O)[nH]c(=O)n2C,4,-6%,-48,1.2,-1,Arbovirus anti repeat=4
C=CCn1c(SCC(=O)/C(C#N)=C(\C)N)nnc1C1CCCCC1,1,0%,-16,0.6,9,
Brc1ccc(CN2CCSCC2)cc1,11,-7%,-19,3.4,1,
CCc1ccc(NC(=O)c2cc(-c3ccco3)on2)cc1,-11,?,-21,1.2,98,
CCCc1ccc(OCCNC(=O)C2CCCCC2)cc1,5,27%,.,-0.2,9,
Cc1cc(C)nc(SCCCNCc2ccccc2)n1,.,.,.,1.7,-9,
Cn1c(=O)oc2cc(S(=O)(=O)N3CCC(C(=O)N4CC=C(c5ccccc5)CC4)CC3)ccc21,1,3%,-13,.,.,Arbovirus anti repeat=7
CN1C2C=C3C(C#N)=C(N)C(C#N)(C#N)[C@@H](c4ccc(Cl)cc4)[C@@H]3C1CC2 (stereo not given in full),0,-1%,-22,-1.6,-7,
O=C(Cc1ccc(F)cc1)Nc1ccc2[nH]ncc2c1,.,.,.,-0.4,4,
Brc1ccc(-c2nnc(-c3cccc(Br)c3)o2)cc1,0,0%,1,-0.8,34,
COCCN(CCOC)S(=O)(=O)c1ccc(Cl)nc1,.,-1%,.,-1.0,-2,
O=C(NCc1ccc2c(c1)OCO2)c1cc(S(=O)(=O)N2CCCCC2)ccc1F,-4,-2%,-21,-3.4,-8,
CC1CCC(NC(=O)c2nn(C)c3c2CSc2ccccc2-3)CC1 (stereo not given),.,.,.,-2.6,9,
CN(Cc1nccs1)C(=O)C1CCC(=O)N(Cc2ccccc2F)C1 (stereo not given),.,.,.,3.2,0,
NC(=O)C1CCN(CC(=O)Nc2nc(-c3ccccc3)cs2)CC1,.,.,.,-0.3,0,
CC(C)c1ccc(-c2nn[nH]n2)cc1,8,-2%,-33,0.0,-19,
O=C(O)C1C2CCC(C2)C1C(=O)NCCc1cccc(Cl)c1 (stereo not given),.,.,.,0.9,3,
FC(F)(F)c1nc2ccccc2n2c(-c3c(Cl)cccc3Cl)nnc12,-9,.,-25,-0.7,-11,
O=C(O)CCCCCNC(=O)Nc1ccc2c(c1)OCCO2,5,5%,13,-4.2,-3,
CN(c1nc(-c2ccccc2)cs1)C1CCS(=O)(=O)C1 (stereo not given),-3,0%,-24,-0.2,1,
Cc1ccc(NS(=O)(=O)c2c(C)nc3sccn3c2=O)c(C)c1,.,.,.,-3.1,-4,
COc1ccc(-n2c(=S)[nH]c3cc(C(=O)NCc4ccco4)ccc3c2=O)c(OC)c1,-12,0%,-13,-0.3,?,
CC(C)C(NC(=O)/C(=C/c1ccco1)NC(=O)c1ccc(Br)o1)C(=O)O (stereo not given),.,.,.,-3.8,-3,
Oc1c(CN2CCN(c3ccccn3)CC2)cc(Cl)c2cccnc12,-34,16%,-47,4.5,6,
CC(C)(C)c1cc(NC(=O)CSc2nnc(NCc3ccccc3)s2)n(-c2ccccc2)n1,3,21%,-38,8.3,3,
O=C(NC1CCCCC1)C(c1ccc(F)cc1)N(C(=O)c1cccs1)c1ccc2c(c1)OCO2 (stereo not given),-12,2%,-36,-1.7,3,
Cc1cc(=O)oc2cc(OCc3ccc(S(=O)(=O)N4CCOCC4)cc3)ccc12,16,1%,-13,-3.5,-4,
COc1cccc(C2=NOC(C(=O)NCCCn3ccnc3)C2)c1 (stereo not given),5,-9%,6,.,0,
Cc1ccc2c(n1)CC(C)(C)C/C2=N\O,-4,-9%,-28,-2.5,0,
O=C(Nc1cccc(Cl)c1)c1ccc(F)c(S(=O)(=O)NCc2cccs2)c1,-6,0%,-19,1.4,5,
Cc1ccccc1NC(=S)N/N=C1\CC(C)(C)Oc2ccc(O)cc21,-5,10%,.,-34,4,
O=C(COC(=O)c1cc(-c2cccc(Br)c2)nc2ccccc12)NCC1CCCO1 (stereo not given),3,12%,.,0.0,-3,
O=C(NN=C(Cc1ccccc1)Cc1ccccc1)c1ccccc1O,-5,65%,.,.,74,
CCCCc1ncc(CN2CCC(n3nccc3NC(=O)c3ccccc3Cl)CC2)[nH]1,.,.,.,-0.6,4,
CC(=O)N1CCN(S(=O)(=O)c2cccc(C(=O)Nc3nc4c(s3)CCCC4)c2)CC1,3,1%,-4,1.4,9,
O=C(C[n+]1ccccc1)c1ccc(Cl)cc1,.,.,.,1.6,-10,
O=C(NC1CCN(C(=S)Nc2ccc(Cl)cc2)CC1)C1CCCCC1,.,.,.,-2.9,5,
Cc1ccc2nc(NC(=O)c3ccc(Br)o3)sc2c1,.,.,.,-1.7,7,

# Continued:
SMILES,Arbovirus anti,Mtb H37Rv,YopH inh,RecA splice inh,Mtb bLac sens,others
Cc1cc(Nc2cccc([N+](=O)[O-])c2)n2c(nc3ccccc32)c1C#N,13,.,-24,3.9,2,
N#CCCCSC1=C(C#N)C(c2ccccc2Cl)CC(=O)N1 (stereo not given),-2,5%,16,0.5,4,
Cc1onc(-c2ccccc2Cl)c1C(=O)Nc1nnc(-c2ccc(F)cc2)s1,8,-1%,-19,5.4,0,Arbovirus anti repeat=3
COc1ccc(Oc2coc3cc(OC(=O)/C=C/c4ccc(F)cc4)ccc3c2=O)cc1,-4,8%,-27,1.5,6,
CCN(CC)S(=O)(=O)c1cccc(-c2nnc(SCC(=O)NC3CCCC3)n2N)c1,9,-6%,-17,0.1,11,
CC(=O)c1ccc(NC(=O)CSc2n[nH]c(-c3cccnc3)n2)cc1,.,.,.,-0.3,6,
COc1ccc(-c2noc(CCC(=O)NC3CCCC3)n2)cc1,.,-13%,.,1.7,0,
COc1cc(NC(=O)c2cccc(Cl)c2)c(OC)cc1NC(=O)CN1CCOCC1,-14,4%,-43,3.9,95,
Cc1ccc(C)c(N2CCN(C(=O)Cc3ccc(-n4c(=O)[nH]c5ccsc5c4=O)cc3)CC2)c1,36*,3%,-15,1.9,12,
O=C(O)c1sc2cccc(Cl)c2c1Cl,16,0%,.,0.0,-5,
CCCCC(=O)Nc1cccc(NC(=S)NC(=O)Cc2ccccc2)c1,-2,15%,-22,-2.1,-3,
CNC(=O)NC(=O)C(NC1CCCc2ccccc21)c1ccccc1 (stereo not given),.,.,.,2.5,7,
O=[N+]([O-])c1ccc(-c2nc(-c3ccncc3)no2)cc1,.,-6%,.,0.5,0,
COc1ccc(OC)c(C(=O)c2ccc(C(=O)Nc3ccccc3)cc2)c1,-14,0%,-8,1.0,-3,
COc1cc(/C=N/NC(=O)c2ccc3nc[nH]c3c2)ccc1O,.,4%,.,-8.3,5,
